Compound activity: PubChem BioAssay, Broad Institute
RanGTP-Impb inh: disruptors of Ran-importin-beta complex formation – biochemical, FRET, CFP-Ran, YFP-importin-beta, homogeneous, primary screen; inhibition, % (test concentration not listed); 1.1% of 300,000 active; cell-free CFP-Ran/YFP-importin-beta FRET ratio;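 active means most replicates above 15%; inconclusive means exactly half above 15%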;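 further: 0% = DMSO wells and 100% = Ran loaded with GDP instead of GTP; wells of about 40 µL received 100 nL stock; the first replicate is given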
FGF22 binding: shifts melting point of recombinant human FGF22. Q9HCT0. recombinant FGF22 thermal shift, SYPRO orange fluorescence; percent of sucrose octasulfate shift, DMSO zero. calls only at 9.99 µM. 1.5% of 340,000 active. AID 651658;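 active means melting point raised past a set limit in the mean and every replicate; inconclusive means no clear call; three in four hits are not shown here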
Target sequence (Q9HCT0 whole entry, looked up): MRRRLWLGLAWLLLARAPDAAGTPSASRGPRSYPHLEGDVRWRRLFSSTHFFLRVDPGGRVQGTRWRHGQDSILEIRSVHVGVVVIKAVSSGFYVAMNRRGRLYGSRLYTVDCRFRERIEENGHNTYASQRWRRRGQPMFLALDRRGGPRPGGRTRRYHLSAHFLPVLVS
rRNA inh HTS: inhibits bacterial ribosomal RNA function over humanized ribosomes; 1.6% of 350,000 active; AID 720706; E. coli WT GFP vs humanized-ribosome RFP mutants, fluorescence, 24 h; stronger effect = lower value; DMSO median 0, no signal -100; GFP signal change (wild-type ribosome), % (test concentration not listed);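 active means significant combined selectivity score with lowered wild-type GFP, culture density cut under 30%, mutant RFP and density less affected; inactive means any of these conditions unmet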; further: one replicate is shown; some compounds called inactive have numbers as strong as hits
ALR inh: human ALR oxidase inhibition via reduced H2O2. P55789. purified ALR, DTT oxidation, H2O2 HRP-luminol luminescence. inhibition, % (test concentration not listed). 3.8% of 290,000 active;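 active means mean and each replicate at 75% or more; inconclusive means only one of the two met; inactive means neither met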;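 further: stock transfer was 7.5 nL into about 7.5 µL; 0% = neutral wells and 100% = wells with inactivated enzyme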
Target sequence (P55789 whole entry, looked up): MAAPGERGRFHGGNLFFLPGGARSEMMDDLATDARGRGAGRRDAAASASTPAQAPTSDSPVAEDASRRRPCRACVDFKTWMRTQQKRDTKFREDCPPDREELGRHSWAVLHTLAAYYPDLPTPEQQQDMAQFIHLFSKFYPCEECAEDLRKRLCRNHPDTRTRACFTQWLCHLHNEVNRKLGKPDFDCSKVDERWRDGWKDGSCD
Calb FLC: affects C. albicans growth with fluconazole; growth inhibition, % (concentration not given with the values); C. albicans CaCi-2 (fluconazole-resistant clinical isolate) + fluconazole, Alamar Blue growth, 48 h; 0.57% of 300,000 active;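 active means most replicates above 75%; inconclusive means exactly half above 75%; inactive means most below 75%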;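 further: all wells also contain fluconazole at 8 µg/ml as a sub-toxic cotreatment; 0% = median of DMSO wells and 100% = median of geldanamycin control wells; wells of about 8 µL received 7.5 nL stock; the first replicate is given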
Beta apoptosis: blocks beta cell apoptosis | INS-1E cytokine-induced death, ATP luminescence, 48 h; percent of positive-control rescue, neutral wells zero | protection from apoptosis, % (no concentration beside the values) | 0.8% of 300,000 active | AID 435005;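 active means all replicates at 75% or more, or half of them and the mean; inconclusive means half reach 75% but not the mean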;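 further: 0% = cytokine-treated negative control wells and 100% = positive control rescue; higher means more ATP so stronger rescue from cytokine killing; wells of about 40 µL received 100 nL stock; the first replicate is given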
T cruzi inh: T. cruzi replication inhibition; T. cruzi beta-gal in NIH3T3, luminescence, 90 h; inhibition, % (concentration not given with the values); 1.4% of 300,000 active;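 active means mean inhibition across valid replicates above about 55%, limit read from the data; inconclusive means mean below that limit but half or more replicates reach it; inactive means mean below it, under half of replicates reach it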;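 further: signal also drops with host cell toxicity which is not excluded here; 0% = plate median of DMSO wells and 100% = zero luminescence signal; higher percent means less beta-gal luminescence so fewer parasites; stock transfer was 50 nL into about 50 µL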
MLL AF4-AF9 inh: blocks AF4 peptide binding to human AF9; P42568; AlphaScreen, biotin-AF4 peptide binding to FLAG-AF9; inhibition, % at 10 µM; 0.47% of 350,000 active;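 active means every replicate reaching a set inhibition limit, whatever the replicate mean, cut at about 25% in these data; inconclusive means mean inhibition reaches that limit but some replicates miss it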;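 further: 0% = plate neutral control median and 100% = total signal loss; the record names both 10 and 1 µM as test concentration; the first replicate is given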
Target sequence (P42568 whole entry, looked up): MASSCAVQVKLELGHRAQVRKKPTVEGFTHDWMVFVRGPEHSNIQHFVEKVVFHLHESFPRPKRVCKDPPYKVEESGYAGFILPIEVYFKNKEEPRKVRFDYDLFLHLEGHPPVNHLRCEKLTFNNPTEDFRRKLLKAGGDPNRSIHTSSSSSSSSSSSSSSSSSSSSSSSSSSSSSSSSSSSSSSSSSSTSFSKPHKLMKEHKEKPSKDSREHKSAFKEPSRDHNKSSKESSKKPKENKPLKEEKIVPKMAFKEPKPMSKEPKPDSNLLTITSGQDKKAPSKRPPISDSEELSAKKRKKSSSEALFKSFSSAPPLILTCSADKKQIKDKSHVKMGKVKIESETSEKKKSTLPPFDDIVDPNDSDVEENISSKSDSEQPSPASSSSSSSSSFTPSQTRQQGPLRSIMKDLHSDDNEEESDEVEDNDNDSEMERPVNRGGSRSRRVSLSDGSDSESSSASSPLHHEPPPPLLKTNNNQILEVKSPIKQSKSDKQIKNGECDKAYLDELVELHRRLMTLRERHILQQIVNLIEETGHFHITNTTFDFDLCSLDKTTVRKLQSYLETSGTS
rRNA inh HTS OD600: recorded beside rRNA inh HTS, whose call it bears; OD600 change, %; measured here: OD600 growth;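 optical density of the mix in the first replicate; 0 = DMSO median and -100 = no signal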
rRNA inh HTS RFP: further read-out of rRNA inh HTS, marked with its call; RFP signal change, %; measured here: RFP humanized mutant strains;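 first replicate; 0 = DMSO median and -100 = no signal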
* hit, by the source's call; i = inactive; ? = inconclusive; . = not tested or not shown; & = joins results of further samples. These rows are one share of the data (hit frequency here may not be typical).

SMILES	RanGTP-Impb inh	FGF22 binding	rRNA inh HTS	rRNA inh HTS OD600	rRNA inh HTS RFP	ALR inh	Calb FLC	Beta apoptosis	T cruzi inh	MLL AF4-AF9 inh
CC(C)(C)NC(=O)NC(=O)CSc1ncccn1	1.8	.	5	5	3.4	16	-4	-3	4	-16
CN(C)S(=O)(=O)c1ccc(C(=O)NCC2(N3CCOCC3)CCCCC2)cc1	.	i	.	.	.	-19	.	-6	.	1.2
CC(C(=O)Nc1ccc([N+](=O)[O-])cc1Cl)N1CCN(S(=O)(=O)c2cccs2)CC1 (centres undefined)	.	i	-7	4	-4.2	20	.	6	.	3.2
COCCNC(=O)/C(C#N)=C/c1ccc(C)o1	?	i	13	9	2.8	4	-2	-6	-25	-1.3
N#Cc1cn(-c2cccc(C(F)(F)F)c2)c(=O)[nH]c1=O	5.4	i	5	17	4.8	-6	-9	-1	5	-9.8
COc1cccc(N(CC(=O)NC2CCCC2)C(=O)CCC(=O)Nc2nccs2)c1	0.4	i	13	15	2.4	-4	-9	-6	0	-21
COC(=O)c1ccc(NC(=S)NCCc2ccccc2C)cc1	-1.9	.	.	.	.	-12	5	-7	10	.
Cc1csc(Nc2ccccc2C(F)(F)F)n1	-1.6	.	.	.	.	1	-11	-6	10	.
Cc1ccc(C)c(S(=O)(=O)c2c(N)n(/N=C/c3ccco3)c3nc4ccccc4nc23)c1	4.5	i	-14	-9	29	-4	20	.	29	4.1
COc1ccccc1C(=O)NNS(=O)(=O)c1ccc(F)cc1	3.7	i	10	-1	-4.7	21	10	-8	-9	-0.8
Cc1ccc(/C=N/NC(=O)Cn2cnc3c2c(=O)n(C)c(=O)n3C)s1	1.0	i	15	7	-4.5	-5	-3	-9	-14	-1.3
CCOC(=O)c1c(NC(=O)CSc2nnc(-c3c[nH]c4ccccc34)n2CC)sc2c1CCCC2	2.4	i	4	1	2.3	6	-5	12	28	6.4
CC1CCN(S(=O)(=O)c2ccc3c(c2)N(CC(=O)NCCCN2CCCC(C)C2)C(=O)CO3)CC1 (centres undefined)	7.3	i	11	7	1.9	-3	-1	-6	4	0.8
O=C(CCc1nnc2ccc(NCc3ccccc3Cl)nn12)NC1CCCCC1	-1.2	i	2	-5	0.3	4	-2	4	6	0.6
O=C(NCCNC(=O)c1ccc(Br)o1)c1cccnc1	-2.0	i	3	14	-0.3	-11	-14	-2	-8	0.2
O=C(O)CCc1nn2cnc3sc4c(c3c2nc1=O)CCCC4	3.9	.	.	.	.	-3	2	-2	-24	.
O=C(Nc1ccccc1)C1=C[C@H](c2ccc3c(c2)OCO3)C[C@H](OCc2ccc(CO)cc2)O1	1.9	i	8	9	-5.5	-14	8	-1	2	-2.0&1.5&-9.9
NC(=S)Nc1ccc(F)c(F)c1F	1.0	i	-2	-2	0.3	1	0	-12	16	-32
N#C/C(=N\Nc1ccc([N+](=O)[O-])cc1)C(N)=S	-8.8	i	-41	-61	-11	53	-5	39	9	6.8
COc1cc(/C=N/NC(=S)NC2CC3C=CC2C3)cc(OC)c1OC (centres undefined)	4.0	i	.	.	.	-5	-11	11	5	5.9
CCC(=O)N(Cc1cc2ccccc2[nH]c1=O)c1ccccc1OC	-2.7	i	2	-3	-4.6	-18	10	-1	6	-4.4
CC(=O)Nc1ccc(NC(=O)C(C)OC(=O)c2cc(S(=O)(=O)N(C)C)ccc2N2CCCC2)cc1 (centres undefined)	3.3	i	-9	-16	6.5	-3	17	1	4	1.5
CCN1CCc2nc(NC(=O)C(c3ccccc3)c3ccccc3)sc2C1	?	.	.	.	.	.	6	-6	31	.
CN(CC(=O)Nc1ccccc1Cl)C(=O)CSc1nnc(N)s1	1.4	.	5	5	-1.9	-6	-7	-5	-4	-2.2
O=C(c1ccc(Cl)cc1)N(Cc1cccs1)C1CCS(=O)(=O)C1 (centres undefined)	?	.	.	.	.	-1	?	-2	-2	.
CC1=C(C(=O)N2CCOCC2)C(c2ccc(O)cc2)NC(=S)N1 (centres undefined)	3.2	.	.	.	.	2	-8	7	-24	.
O=C(NCC(c1ccco1)N1CCN(c2ccccc2F)CC1)c1cccs1 (centres undefined)	-3.6	i	1	1	-0.7	1	-7	3	-3	4.4
Cc1cc(NC(=O)C2CC(c3c(F)cccc3Cl)=NO2)n(-c2ccccc2)n1 (centres undefined)	0.1	i	-9	-13	2.5	-3	-2	-4	1	-0.8
CCSC1=NCN(CCCC(=O)O)CN1	-3.9	.	.	.	.	-3	-15	-41	-6	.
O=S(=O)(c1ccc2ccccc2c1)N1CCN(Cc2ccccn2)CC1	4.4	i	-7	-7	1.6	-4	-3	.	15	-1.9
Cc1nn2c3c(cnc2c1-c1ccccc1)C(=O)CCC3	2.2	.	.	.	.	.	-5	5	0	.
COc1ccc(NC(=O)C2CCCC2)cc1S(=O)(=O)N1CCOCC1	.	i	5	8	-2.2	1	.	1	.	-4.9
CC1CCCC(C)N1CC(O)COCc1ccccc1F (centres undefined)	4.7	i	7	12	1.5	-1	-3	-6	7	-0.7
CCCNC(=S)N1CCC(c2nc3cc(C)c(C)cc3[nH]2)CC1	-5.5	.	.	.	.	-1	-2	-4	8	.
CCN(C1CCS(=O)(=O)C1)S(=O)(=O)c1cc(C)ccc1C (centres undefined)	5.1	i	6	9	2.2	-3	0	-3	4	-0.4
COc1ccc(/C=C(\NC(=O)c2cccs2)C(=O)N2CCOCC2)cc1OC	-0.2	.	.	.	.	.	1	-8	6	.
O=C1C2CCCCN2C(=O)N1CCCCN1CCN(c2cccc(Cl)c2)CC1 (centres undefined)	-2.9	i	5	3	-5.2	42	-14	1	-10	1.2
COc1cccc(NC(=O)CCc2nnc3ccc(N4CCN(c5cccc(OC)c5)CC4)nn23)c1	0.9	.	.	.	.	-4	-8	3	5	.
Cc1cc(C)c(NC(=O)CSc2nnc(CNC(=O)c3c(F)cccc3Cl)o2)c(C)c1	-0.5	i	2	-1	0.2	-23	0	-3	9	0.1
Cc1cc(-c2ccccc2)n[nH]1	2.3	i	-2	-1	-1.6	-14	-16	-2	-1	0.2
N=C(N)c1ccc(Cl)cc1	-0.3	i	12	17	2.6	4	-11	-4	-11	0.3
CN(C(=O)CN1C(=O)C2C3CC(C(Br)C3Br)C2C1=O)C1CCCCC1 (centres undefined)	-3.2	i	-2	6	-0.9	-6	-11	.	10	-5.1
CCN(CC(=O)Nc1cc(Cl)cc(Cl)c1)CC(=O)NC1CCS(=O)(=O)C1 (centres undefined)	.	i	0	-4	-0.2	-2	.	-5	.	0.0
CC(Sc1ncnc2sc(-c3ccccc3)cc12)C(N)=O (centres undefined)	4.7	i	4	20	-0.5	-1	28	-3	-14	2.3
CC(=O)c1ccc(NC(=O)C2CCN(S(=O)(=O)c3cccs3)CC2)cc1	0.3	i	-7	-10	-7.2	-4	-28	4	10	-53
CCOC(=O)c1c(C)nc2c(c1C)c(=O)oc1ccccc12	5.0	.	.	.	.	0	10	-6	-9	.
O=C(Cn1nnc(-c2ccccc2)n1)OCc1csc(-c2ccccc2)n1	1.3	.	.	.	.	99*	-12	-7	-5	.
CN(CC1COc2ccccc2O1)C(=S)Nc1ccccc1 (centres undefined)	1.3	.	-5	-7	-4.5	-3	-1	-3	-18	.
Cc1ccc(NC(=O)COn2nnc3ccc(S(=O)(=O)N(C)C)cc32)cc1F	2.4	.	.	.	.	56	3	-7	-3	.
Cn1c(CBr)c(C(=O)c2ccc([N+](=O)[O-])cc2)c(=O)n(C)c1=O	1.6	i	.	.	.	-14	15	-13	16	2.5
COC(=O)c1ccc(/C=C/c2ccc3cccc(OC(C)=O)c3n2)cc1	-1.6	.	.	.	.	-2	24	5	33	.
CCOC(=O)Cc1c(Sc2ccccc2)c2ccccc2n1C	1.0	i	1	-6	-7.3	-3	3	1	0	0.2
CCOc1ccc2c(c1)C(N(CCN1CCOCC1)C(=O)Nc1ccc(OC)cc1OC)CC(C)(C)O2 (centres undefined)	1.0	i	3	-7	1.2	-10	-18	1	8	-4.0
NS(=O)(=O)c1cc(C(=O)OC2CCOC2=O)ccc1Cl (centres undefined)	0.4	i	5	14	2.9	3	1	-3	-3	0.1
CC(CCc1ccccc1)NC(=O)COC(=O)C1=COCCO1 (centres undefined)	2.4	.	.	.	.	-35	-3	2	-11	.
O=C(NC1=NCCCCC1)c1cccc2ccccc12	-0.9	i	1	-18	-2.1	16	15	-8	1	0.1
CCc1n[nH]c(=S)n1/N=C/c1cc(Br)c(O)c(OC)c1	4.9	i	4	0	4.3	68	13	2	-10	-5.8
Cc1ccc(-c2nn3c(C)nnc3c3ccccc23)cc1S(=O)(=O)NCCO	0.9	i	1	6	-0.6	1	15	5	-4	-8.9
C/C(=N\NC(=O)c1c(Cl)c(C)nn1C)c1cccc(NC(=O)c2cccc(F)c2)c1	0.6	i	10	21	0.1	-10	-5	5	-8	0.5
COCCNC(=O)Nc1ccc2nc(-c3cccs3)c(-c3cccs3)nc2c1	120*	.	.	.	.	-22	-5	-1	0	.

The final 5 compounds of the section before open the next one:
SMILES	RanGTP-Impb inh	FGF22 binding	rRNA inh HTS	rRNA inh HTS OD600	rRNA inh HTS RFP	ALR inh	Calb FLC	Beta apoptosis	T cruzi inh	MLL AF4-AF9 inh
O=C(NC1=NCCCCC1)c1cccc2ccccc12	-0.9	i	1	-18	-2.1	16	15	-8	1	0.1
CCc1n[nH]c(=S)n1/N=C/c1cc(Br)c(O)c(OC)c1	4.9	i	4	0	4.3	68	13	2	-10	-5.8
Cc1ccc(-c2nn3c(C)nnc3c3ccccc23)cc1S(=O)(=O)NCCO	0.9	i	1	6	-0.6	1	15	5	-4	-8.9
C/C(=N\NC(=O)c1c(Cl)c(C)nn1C)c1cccc(NC(=O)c2cccc(F)c2)c1	0.6	i	10	21	0.1	-10	-5	5	-8	0.5
COCCNC(=O)Nc1ccc2nc(-c3cccs3)c(-c3cccs3)nc2c1	120*	.	.	.	.	-22	-5	-1	0	.
Cc1cc2cc(CN(Cc3ccco3)C(=O)NCc3ccccc3)c(=O)[nH]c2cc1C	4.4	.	.	.	.	-1	39	-4	15	.
COc1ccc(-c2csc(NC(=S)NC(=O)/C=C/c3ccco3)n2)cc1OC	3.7	i	-14	0	-1.4	-21	59	29	-37	5.1
CC1=C([N+](=O)[O-])C(c2ccccc2Cl)NC(=O)N1C (centres undefined)	-0.3	i	9	3	2.6	46	-4	-3	4	-14
O=c1[nH]c(C2CCN(S(=O)(=O)c3ccc(C(F)(F)F)cc3)CC2)nc2c1nnn2Cc1cccc(F)c1	-1.4	i	-3	-14	4.2	.	33	-8	6	0.9
CCCC(O)(c1ccc(OC)cc1)C(CN1CCOCC1)c1ccc(Cl)cc1 (centres undefined)	1.5	i	0	-47	-6.9	-13	7	5	-17	7.4
Cc1ccc(/C(N)=N/OC(=O)Cc2cccs2)cc1	0.1	.	.	.	.	-5	-13	-3	-3	.
